Bioassay records from PubChem BioAssay.
Rce1 inh: inhibitors of yeast Ras-converting enzyme | Q03530 | yeast membranes, quenched prenylated peptide cleavage fluorescence | calls only | 290,000 compounds, 0.27% hits;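 active means fall in fluorescence gain of 50% or more versus controls, with final raw signal at or below 3038400; inconclusive means same 50% fall but final raw signal above 3038400; inactive means fall in fluorescence gain under 50%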;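 further: plate controls were neutral control wells for no effect and wells lacking membranes for full effect; tested at 10 µM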
Target sequence (Q03530 whole entry, looked up): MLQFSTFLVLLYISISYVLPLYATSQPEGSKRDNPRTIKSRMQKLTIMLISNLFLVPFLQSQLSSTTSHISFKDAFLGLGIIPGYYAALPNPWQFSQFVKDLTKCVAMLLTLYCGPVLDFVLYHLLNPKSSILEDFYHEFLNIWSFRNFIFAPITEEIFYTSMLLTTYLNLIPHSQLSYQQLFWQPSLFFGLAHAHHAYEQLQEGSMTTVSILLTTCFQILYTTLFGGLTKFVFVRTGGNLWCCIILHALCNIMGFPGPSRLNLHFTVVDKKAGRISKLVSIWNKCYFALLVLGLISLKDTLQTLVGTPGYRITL
PABP polyA inh: blocks human PABP binding to poly(A) RNA; inhibition, % at 35 µM; AID 2014; 290,000 compounds, 1% hits; fluorescence polarization;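 active means 50% or more with normal probe brightness, or confirmed in later tests; inconclusive means above 50% with abnormal brightness, or retests that disagree; inactive means below 50% or failed in later tests; about a fifth of its hits are not listed in these tables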;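 further: calls also rest on retests at 20 µM and on dose response follow-up; controls were probe without protein and protein plus probe with vehicle; some compounds called inactive have numbers as strong as hits; many hits fall short of the cut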
Env fusion inh: inhibitors of HIV Env-mediated cell fusion; HeLa-JRFL Env/CEM21 cell fusion, luciferase; inhibition, % at 12.3 µM; 360,000 compounds, 1.1% hits; AID 651610;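 active means mean replicate inhibition score of at least 50 and every replicate individually at or above 50; inconclusive means only one of the two criteria met; inactive means mean below 50 and not all replicates reaching 50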;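 further: 0% = plate neutral controls and 100% = maraviroc near 300 nM; one replicate is shown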
Yeast UUG start: yeast start codon fidelity modulation. AID 602363. activity score, % at 18.7 µM. S. cerevisiae UUG-firefly luciferase reporter, luminescence/redox ratio. 350,000 compounds, 0.13% hits;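 active means replicate mean at a twofold rise or more, about +100% in these data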;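 further: firefly luciferase made from a UUG start codon reports start codon fidelity; reporter light over untreated wells divided by growth signal over untreated wells; some hits fall short of that in this replicate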
MT1-MMP act inh: inhibitors of human MT1-MMP activation; P50281; HT1080 RFP-PRO-GFP cells, GFP/RFP ratio fluorescence, overnight; percent of plate control window, DMSO zero; GFP/RFP ratio change, % at 20 µM; 360,000 compounds, 0.061% hits;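 active means GFP/RFP ratio change of at least 30% with cell ATP level not reduced by more than half and red fluorescence within 50% of control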; further: strong numbers were not always called active
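Material – HT1080 RFP-PRO-GFP cells · Control set – DMSO wells and RFP-L50D-GFP cells · Incubation – overnight cell settling, then overnight compound exposure, 37 °C, 5% CO2 · Compound dosing – single-point 20 µM compound, 1% DMSO · Read-out – GFP/RFP fluorescence ratio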
CSC inhib: blocks cancer stem cells | AID 2717 | inhibition, % at 7.5 µM | 300,000 compounds, 1.1% hits | cancer stem cell-like cells viability, luminescence;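 active means mean at 75% or more and at least half the replicates too; inconclusive means mean and replicates disagree; tested in HMLE shEcad cells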;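 further: 0% = median of negative and 100% = median of positive control wells; the first replicate is given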
eIF4H FP inh: inhibitors of RNA binding by human eIF4H. eIF4H fluorescence polarization binding assay. inhibition, % at 35 µM. 290,000 compounds, 0.94% hits;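 active means 50% or more with normal probe brightness, or confirmed in later tests; inconclusive means above 50% with abnormal brightness, or retests that disagree; inactive means below 50% or failed in later tests; about a fifth of its hits are not listed in these tables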;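 further: calls also rest on retests at 20 µM and on dose response follow-up; 0% = protein and probe with vehicle and 100% = probe without protein; strong numbers were not always called active; many hits fall short of the cut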
eIF4H FP inh retest: further read-out of eIF4H FP inh, marked with its call; inhibition, %; compound at 20 µM; confirmation average;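 mean of two retest wells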
PABP polyA inh retest: recorded beside PABP polyA inh, whose call it bears; inhibition, %; compound at 20 µM; confirmation repeats;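 mean of two retest wells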
MT1-MMP act inh RFP: also measured in MT1-MMP act inh; calls as there; RFP signal change, %; measured here: RFP expression control read;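 0 = vehicle wells; hits needed this value within 50% of zero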
An asterisk follows results filed as active; i = inactive; ? = inconclusive; . = no result given. Some of the compounds tested, so the mix of outcomes need not match the whole.

SMILES	Rce1 inh	PABP polyA inh	Env fusion inh	Yeast UUG start	MT1-MMP act inh	MT1-MMP act inh RFP	CSC inhib	eIF4H FP inh	others
COc1ccc(CN(C)Cc2ccccc2)c(OC)c1OC	i	5.0	-68.1	.	0.9	3.9	-12.8	1.4
Cc1oc(-c2cccs2)[n+]([O-])c1C	i	1.8	-60.7	-17.3	-3.7	-5.6	-7.0	-4.6
COc1ccc(C(=O)NCCC(C)C)cc1S(=O)(=O)N1CCOCC1	i	-1.4	-31.4	-2.7	-3.7	5.5	2.8	-3.2
O=C1COCC(=O)N1CCc1c[nH]c2ccccc12	i	8.8	-10.1	-25.3	-1.8	0.4	-7.3	6.2
O=C(Nc1cc(F)ccc1F)C1CCCN(c2ncnc3c2nc2n3CCCCC2)C1 (stereo not given)	i	3.5	6.6	14.4	-5.8	-6.4	51.9	8.7
COc1cc(C(=O)N2c3ccccc3CCC2C)cc(OC)c1OC (stereo not given)	i	-1.8	17.6	-3.9	1.3	-4.7	-12.9	3.1
COc1cc(/C=C/c2ccc3cccc([N+](=O)[O-])c3n2)ccc1OCC(=O)O	i	-5.9	-36.6	-2.1	0.1	0.3	7.3	26.5
CC(=O)OCC(=O)C1(O)CCC2C3CC(C)C4=CC(=O)C=CC4(C)C3=CCC21C (stereo not given)	.	.	i	-1.5	2.5	3.6	.	.
Cc1ccc(CNC(=O)C2=CCN(S(=O)(=O)c3ccc(C)cc3)CC2)cc1	i	16.7	25.1	-8.3	-3.7	-5.8	-19.9	-4.0
CC1CCC(C(C)C)C(OC(=O)COC(=O)c2cc(O)ccc2N)C1 (stereo not given)	i	-11.0	22.2	.	-18.8	-8.4	37.6	18.9
Nc1ccc(-c2nnnn2-c2ccc(N)cc2)cc1	i	2.2	8.9	-25.9	1.4	0.8	-1.5	-7.6
Cc1ccc(NS(=O)(=O)c2ccc3c(c2)oc(=O)n3C)cc1F	i	-4.8	-14.7	-10.8	-7.3	-3.0	4.9	-4.7
CCC(C)N(C(=O)CSc1nc(C)c(C)c(C)c1C#N)C1CCS(=O)(=O)C1 (stereo not given)	.	.	-1.7	-10.0	-0.7	2.8	.	.
CC(C)(C)c1nnc(NS(C)(=O)=O)s1	i	.	-75.1	-14.0	3.1	-3.6	-4.6	.
O=C(CC1C(=O)NCCN1Cc1cccc(F)c1)NCCCN1CCCC1=O (stereo not given)	i	14.4	6.0	15.0	-7.4	0.4	-0.7	21.4
CS(=O)(=O)N(CC(=O)N1CCCCCC1)c1ccc2c(c1)OCCO2	i	-2.7	.	-11.8	1.5	-2.9	-12.3	-6.7
C/C=C/C=C/C(=O)OC(C)C(=O)Nc1cc([N+](=O)[O-])ccc1OC (stereo not given)	i	4.5	19.5	.	0.1	-3.7	4.6	-7.6
Cc1ccc(NC(=S)NNS(=O)(=O)c2ccc3ccccc3c2)cc1Cl	i	-13.1	1.3	.	1.7	2.9	-3.5	12.6
O=C(N/N=C/C(Cl)=C/c1ccccc1)c1ccncc1	i	-0.8	-8.3	.	1.3	2.1	4.4	-9.2
COc1cccc(-c2nc3c(c(=O)[nH]c(=O)n3Cc3ccccc3)n2CCO)c1OC(F)F	.	7.6	17.7	-1.7	-1.3	1.1	6.4	-0.1
NC(=O)C1CCN(C(c2ccccc2F)c2nnnn2Cc2ccco2)CC1 (stereo not given)	i	19.4	-10.4	-31.1	3.6	7.9	-2.4	-0.4
O=C(Cc1ccccc1)NNC(=S)Nc1ccccc1	i	-4.4	-14.8	.	-1.5	-1.9	10.8	16.2
COc1cccc(NC(=S)NC2CC3CCCC(C2)N3C2CCCC2)c1 (stereo not given)	i	-2.0	-1.1	.	-2.6	-3.0	2.9	5.5
C[C@@H]1CCC(=O)N(C[C@@H](C)CSc2ccc(Br)cc2)CC1	.	.	.	-7.0	4.7	-2.8	14.2	.
Cc1cc(S(=O)(=O)Nc2ccccc2C(=O)O)ccc1Cl	i	-3.2	.	-8.2	5.2	0.8	5.5	-6.7
CCN(CC)CCNC(=O)c1ccccc1C(=O)c1ncc[nH]1	i	1.7	.	-30.1	-0.3	1.2	-5.2	-17.5
Cc1ccc(C(C)C)c(OCc2ccc(C(=O)N/N=C/c3cccc(O)c3O)cc2)c1	i	4.8	-8.1	.	-9.1	-22.6	111.4*	64.9	eIF4H FP inh retest=2.8;PABP polyA inh retest=-1.2
COc1ccccc1S(=O)(=O)N1CCNC(=O)C1	.	.	11.7	-11.4	0.7	1.8	-11.4	.
CC1(C(=O)NS(=O)(=O)c2cccc(Cl)c2)CCN1C(=O)c1ccccc1CCc1ccccc1 (stereo not given)	.	.	-3.3	-27.2	4.8	3.6	.	.
O=C(CCSc1nnc(-c2ccncc2)o1)Nc1ccccc1Cl	i	32.0	.	-77.0	5.2	2.8	-11.7	-7.8
CN1C(C(=O)NCc2cccc(C(F)(F)F)c2)CC2Cn3c(nc4cc(Cl)c(Cl)cc43)C21 (stereo not given)	i	2.5	-19.6	-13.6	7.1	-6.3	2.5	-7.8
Cc1cccc(-n2nc(C)c3c2NC2=C(C(=O)CCC2)C3c2ccccn2)c1 (stereo not given)	i	1.2	-10.8	-12.2	-1.5	-2.0	-4.0	5.6
CCOC(=O)c1c(C)c(C(=O)NCc2ccc(OC)cc2)c(C)n1C	i	0.4	6.5	.	-3.1	1.3	-9.5	6.0
O=C(Nc1ccccc1)c1cccc2c(Br)cccc12	i	-6.2	-3.3	-8.1	2.6	2.7	-9.0	-2.2
CN(C)C(=O)CCc1ccc2c3c([nH]c2c1)[C@]1(CCC2CCCC2)[C@@H](C(=O)N2CCOCC2)C[C@H](CC(=O)NCCC2=CCCCC2)C(=O)N1CC3	.	.	2.2	11.8	1.6	-7.4	.	.
O=c1[nH]c(=S)[nH]c2c1C(c1ccc(F)cc1)OC(CCOCc1ccccc1)C2 (stereo not given)	.	.	-47.0	-7.8	5.4	-7.5	.	.
O=C(O)[C@H](Cc1ccccc1)N1Cc2ccccc2C1=O	i	-0.9	.	-6.4	-2.5	0.3	-1.4	-3.1
N#CCCn1cc(C(=O)Nc2ccc(C(=O)O)cc2)c(-c2cc3ccccc3o2)n1	i	-7.3	3.9	.	-2.3	1.8	-0.2	2.2
CC(C)c1ccc(O)c(NC(=O)c2cncc(Br)c2)c1	i	8.4	14.4	-12.0	6.6	0.8	-16.5	-12.1
CCOC(=O)c1sc(NC(=O)CSc2ncccn2)c(C#N)c1C	i	-5.5	-36.4	.	2.3	-3.1	.	-6.5
O=C(NCCCSc1ccccc1)c1cnc(Cl)c(Cl)c1	i	-3.2	8.4	-5.7	4.0	4.4	-14.1	-10.1
O=C1CC(C(=O)N2CCCc3ccccc32)CN1c1ccc(F)cc1 (stereo not given)	i	-3.8	-8.9	-5.5	-1.1	2.6	.	-11.1
CC1=C(C(=O)N2CCCC(CCC(=O)NCc3ccc(F)c(F)c3)C2)OCCO1 (stereo not given)	i	-6.5	6.9	-9.4	3.2	0.4	-21.3	1.1
O=C1C(=O)N(CNc2cccnc2)c2ccccc21	i	-0.5	8.0	.	-1.2	4.9	-10.2	-13.5
COc1cc(C2c3c(-c4ccccc4)n[nH]c3C(=O)N2c2ccc(C(=O)O)cc2)ccc1O (stereo not given)	i	2.2	.	-7.0	0.0	4.8	-9.3	6.6
O=C1c2ccccc2C(=O)c2c1cccc2N1CCN(CCO)CC1	i	?	.	-7.6	-15.4	2.3	9.4	?
CCCCOc1ccc(CNC(=S)N/N=C/c2ccc(OC)c(OC)c2)cc1	i	-1.5	.	-4.2	0.0	-7.6	0.9	-8.7
CCc1cc(C(=O)OC)c(NC(=O)CC2NCCNC2=O)s1 (stereo not given)	i	-10.6	-6.9	-12.0	-4.9	-3.6	-0.7	-3.5
CCOc1ccc(-n2c(SC)nc3c(c2=O)SCC3)cc1	i	-8.0	6.2	-22.1	-0.5	1.5	1.8	-8.5
CC(C)OC(=O)CC(=O)c1sc2nc3c(cc2c1N)CN(C)CC3	i	?	.	.	.	.	-12.7	?
CCOc1ccc(S(=O)(=O)NCCC(=O)NCc2cccnc2)cc1	i	.	.	-11.6	2.0	2.8	3.9	.
CCSc1nnc(NC(=O)CSc2nnc(Cc3cccn3C)n2CCc2ccccc2)s1	i	-10.7	-37.0	.	6.9	0.2	8.8	-5.3
CCCS(=O)(=O)NC(=O)C1(C)CCN(C(=O)c2cc(C)oc2C)C1 (stereo not given)	.	.	-0.7	2.6	7.5	4.5	.	.
Cc1ccc(CC(=O)O/N=C(\N)c2ccncc2)cc1	i	-10.5	.	-8.9	5.0	-6.4	0.7	-3.0
COc1ccc(C(C)=O)cc1COc1cccc2c1OC(C)(C)C2	i	3.6	-6.9	-7.4	0.7	-1.1	-15.0	0.3
COCC(O)Cn1ccnc1[N+](=O)[O-] (stereo not given)	.	.	-10.4	-18.4	-0.3	0.8	.	.
COc1ccc(F)cc1S(=O)(=O)Nc1cc2c3c(c1)CCN3C(=O)CC2	i	.	-14.7	.	2.3	4.1	9.1	.
COCCSc1ccccc1C(=O)N1CCc2ccccc21	i	-15.9	17.1	-13.0	0.9	4.5	-10.0	-1.1
CCCN(CCC)C(=O)CSc1nc2n[nH]c(C)c2c(=N)n1-c1ccc(OC)cc1	i	-1.7	.	0.9	5.6	-7.8	1.5	-3.6
CCOc1ccc2[nH]c3c(=O)n(CCC4=CCCCC4)cnc3c2c1	i	3.1	-18.1	.	-3.0	-3.1	1.4	7.2
Going on with the list:
SMILES	Rce1 inh	PABP polyA inh	Env fusion inh	Yeast UUG start	MT1-MMP act inh	MT1-MMP act inh RFP	CSC inhib	eIF4H FP inh	others
O=C(Nc1ccc(C(F)(F)F)cc1)c1cc(S(=O)(=O)NCC2COc3ccccc3O2)ccc1F (stereo not given)	i	9.0	.	-19.0	4.8	-6.3	23.4	0.1
COC(=O)[C@]1(Cc2ccccc2)N[C@H](CN(C)S(=O)(=O)c2ccc(OC(F)(F)F)cc2)[C@@H]2C(=O)N(C)C(=O)[C@@H]21	.	.	-27.2	-3.2	3.1	4.2	.	.
COc1ccccc1NC(=O)COC(=O)c1cnccn1	i	-1.3	-47.6	7.2	-0.1	4.7	-13.7	-3.0
CCOC(=O)c1cnc2ccccc2c1Nc1ccc(C(=O)O)cc1	i	?	27.2	.	0.2	0.7	-14.4	-6.2
CNc1ccc(Br)cc(C(=O)/C=C/c2ccc(Cl)cc2Cl)c1=O	i	60.7	-198.9	.	-15.8	-3.2	11.5	67.9	eIF4H FP inh retest=-3.2;PABP polyA inh retest=1.7
C[C@@H]1CNC(=O)c2c(C(=O)NCc3ccc(CNC(=O)OC(C)(C)C)cc3)ncn21	.	.	10.9	-18.0	9.8	-14.5	.	.
CCCNC(=O)c1nc(C)n(-c2cc(Cl)cc(Cl)c2)n1	i	-0.8	3.5	.	0.5	1.7	.	-2.3

Part of the list above in order of number of heavy atoms, descending:
SMILES	Rce1 inh	PABP polyA inh	Env fusion inh	Yeast UUG start	MT1-MMP act inh	MT1-MMP act inh RFP	CSC inhib	eIF4H FP inh	others
CCOC(=O)c1cnc2ccccc2c1Nc1ccc(C(=O)O)cc1	i	?	27.2	.	0.2	0.7	-14.4	-6.2
COc1ccccc1NC(=O)COC(=O)c1cnccn1	i	-1.3	-47.6	7.2	-0.1	4.7	-13.7	-3.0
CCCNC(=O)c1nc(C)n(-c2cc(Cl)cc(Cl)c2)n1	i	-0.8	3.5	.	0.5	1.7	.	-2.3
